From PubChem
StopGo reporter = FMDV 2A StopGo reporter, luciferase signal. human cells with a luciferase reporter of 2A StopGo recoding; control for the full effect not named in the record. Potency, µM (titrated, usually from 57.9 µM), inactives show top-dose signal change, negative = less light. 410,000 compounds, 1.2% hits; active = well fitted falling curve with a large enough effect; inconclusive = small, poorly fitted or top-dose-only effect; inactive = no such curve, though single readings can be large or run the other way; tested in HEK293T cells; note: % is set by controls: 0 for no effect and ±100 for the full control effect; nearly all actives have a fitted effect of over 45% in size; luciferase light after 4 h
RE007 growth inh = less growth of the S. pombe RE007 Vpr strain; Potency, µM (highest dose often 92.2 µM), for the others: top-dose activity change, negative = less growth; 360,000 compounds, 0.21% hits; S. pombe RE007 Vpr strain, BacTiter-Glo ATP luminescence, 24 h; control for the full effect not named in the record; AID 651644; active = well fitted falling curve with a large enough effect; inconclusive = small, poorly fitted or top-dose-only effect; inactive = no such curve, though single readings can be large or run the other way;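 note: % is set by controls: 0 for no effect and ±100 for the full control effect; nearly all actives have a fitted effect of over 50% in size; the assay follows cell death caused by Vpr and the record does not say whether a fall means rescue or toxicity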
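Fission yeast RE007 carrying one integrated HIV-1 vpr copy, seeded at OD 0.01 in PMG+AL medium with 23 nL pinned compound. Grown 24 h at 30 degrees; viability read by BacTiter-Glo luminescence after 5 min.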
NS1 function inh = inhibitors of influenza NS1 protein function | Potency, µM (doses to about 46.1 µM), for inactives: at the highest dose activity, positive = more growth | 270,000 compounds, 0.4% hits | AID 2326 | S. cerevisiae slowed by influenza A NS1, growth recovery by OD600; active means well fitted rising curve with a large enough effect; inconclusive means small, poorly fitted or top-dose-only effect; inactive means no such curve, though single readings can be large or run the other way; note: nearly all actives have a fitted effect of over 50% in size
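Recovery from NS1-induced slow growth read by OD600 in budding yeast switched to galactose assay medium (pH 6.0, -URA) at 1:100 dilution. Compound 23 nl per well; the matching strain lacking NS1 serves as control.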
Cruzain noTriton = inhibitors of Trypanosoma cruzi cruzain without detergent. AID 1476. 200,000 compounds, 2.3% hits. purified cruzain, Z-FR-AMC fluorescence, no detergent. Potency, µM, for inactives: max response, negative = inhibition, actives largely listed as inhibitors;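 note: plate controls were enzyme without inhibitor for no effect and buffer without enzyme for full effect; nearly all actives have a fitted effect of over 40% in size; top concentration of the series not given in the record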
Target sequence (P25779 123-467 limits assumed): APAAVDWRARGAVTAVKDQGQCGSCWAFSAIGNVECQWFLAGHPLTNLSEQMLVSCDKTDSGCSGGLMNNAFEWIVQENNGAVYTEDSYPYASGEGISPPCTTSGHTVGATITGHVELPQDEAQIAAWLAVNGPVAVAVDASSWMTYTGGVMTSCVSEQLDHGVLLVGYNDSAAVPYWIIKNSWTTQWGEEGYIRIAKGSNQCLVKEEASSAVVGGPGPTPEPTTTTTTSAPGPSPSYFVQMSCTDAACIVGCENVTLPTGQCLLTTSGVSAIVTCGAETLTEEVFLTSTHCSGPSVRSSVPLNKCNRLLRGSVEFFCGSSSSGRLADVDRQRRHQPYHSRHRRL
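Purified cruzain at 1.5 nM, pre-incubated 15 min with compound at room temperature in 100 mM sodium acetate pH 5.5, 5 mM DTT, 0.00005% Triton X-100. Reaction started with 2 uM Z-FR-AMC; AMC fluorescence increase over 60 s gives rate.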
MARV entry inh = Marburg virus entry inhibition. Marburg virus pseudotyped entry inhibition, cell reporter; control for the full effect not named in the record; about a third of the inactives were read at about 46 µM. Potency, µM (doses to about 37.8 µM), without a hit: at the highest dose activity change, negative = inhibition, usual class: inhibitors. 300,000 compounds, 1.8% hits. AID 540276; active = well fitted inhibition curve with a large enough effect; inconclusive = small, poorly fitted or top-dose-only effect, or effect the other way; inactive = flat fitted curve, though single readings scatter; tested in HEK293 cells; about a fifth of its hits are not listed in these tables; note: % is set by controls: 0 for no effect and ±100 for the full control effect; luciferase read-out
LASV entry inh = blocks Lassa virus binding to or entry into cells. Lassa virus pseudotype entry inhibition, cell reporter; control for the full effect not named in the record. Potency, µM (series often up to 37.9 µM), without a hit: at the top dose activity change, negative = inhibition, actives largely listed as inhibitors. 300,000 compounds, 1.2% hits; active means well fitted inhibition curve with a large enough effect; inconclusive means small, poorly fitted or top-dose-only effect, or effect the other way; inactive means flat fitted curve, though single readings scatter; tested in HEK293 cells; note: % is set by controls: 0 for no effect and ±100 for the full control effect; nearly all actives have a fitted effect of over 50% in size; luciferase read-out
Cruzain Triton = blocks cruzain activity in presence of Triton detergent | Potency, µM, inactives show max response, negative = inhibition, hits mostly inhibitors | 200,000 compounds, 0.43% hits | purified cruzain, Z-FR-AMC fluorescence, 0.01% Triton;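 note: plate controls were neutral wells for no effect and buffer without enzyme for full effect; nearly all actives have a fitted effect of over 40% in size; top concentration of the series not given in the record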
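Compounds were screened in titration against cruzain (1.5 nM) with 0.01% Triton X-100 to counter colloidal aggregation. Activity was the AMC fluorescence increase over 60 s after adding 2 uM Z-FR-AMC at pH 5.5.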
SARS PLP yeast = blocks SARS-CoV papain-like protease in a yeast assay; Potency, µM (top dose mostly 32.9 µM), for the others: at the top dose activity, positive = growth rescue; 330,000 compounds, 0.19% hits; S. cerevisiae expressing SARS-CoV PLpro, growth rescue; control for the full effect not named in the record; active means well fitted rising curve with a large enough effect; inconclusive means small, poorly fitted or top-dose-only effect; inactive means no such curve, though single readings can be large or run the other way; note: 0% is about no effect; nearly all actives have a fitted effect of over 55% in size; growth read by luminescence after 48 h
Numbers without * were called inactive; ? = inconclusive; . = not tested or not shown; & = joins results of further samples; [ ] = dose if it differs, or a comment. Unless noted, calls come from the whole dose curve; as a rule, active = well fitted curve in the direction sought with a large enough effect; inconclusive = small, poorly fitted or top-dose-only effect, or another doubt; inactive = no such curve, though single readings can be large; an effect the other way counts as inactive or inconclusive. Potency is the fitted concentration of half-maximal effect. Outcome played no part in choosing rows. Share with any hit: about 4.8%.

SMILES	StopGo reporter	RE007 growth inh	NS1 function inh	Cruzain noTriton	MARV entry inh	LASV entry inh	Cruzain Triton	SARS PLP yeast
COc1cc(C(=O)Nc2nc(N)n(-c3ccccc3)n2)cc(OC)c1OC	-1%	12%	-1%	-5%	0%	14%	6.0%	-3%
O/N=C1\CCCc2ccc3ccccc3c21	-6%	-2%	-3%	.	24%	5%	.	-1%
CCCC1C(c2ccccc2)C(C#N)(C#N)C2(C#N)CC1(N)NC2=O (stereo not drawn)	-5%	2%	7%	2%	-9%	11%	5.4%	-4%
COc1cc2c(cc1NC(C)=O)CCCC2	.	-2%	-1%	8%	1%	10%	3.5%	6%
O=C(Nc1nnc(SCC(=O)N2CCCC2)s1)C1CC(=O)N(c2ccccc2)C1 (stereo not drawn)	?	-20%	-10%	.	-3%	-14%	.	0%
Clc1ccc(NCc2nncn2-c2ccccc2)cc1	?	-2%	1%	-9%	?	2%	3.9%	2%
O=c1[nH]c(Cc2cccc(C(F)(F)F)c2)nc2ccccc12	-11%	1%	5%	.	.	.	.	1%
CCOCCCNC(=O)c1ccc(OC(C)=O)cc1	33%[activator]	-9%	12%[9.22 µM]	0%	?	4%	-0.9%	-2%
CCOc1ccc(-c2nnn(CC(=O)c3ccc4c(c3)OCCO4)n2)cc1	?	2%	-6%	?	24%	-8%	-2.1%	1%
O=C(CCc1nc2ccccc2s1)OCC(=O)c1ccc[nH]1	-6%	1%	0%	.	-4%	5%	.	0%
O=C1/C(=C/c2ccc([N+](=O)[O-])cc2)N2CCC1CC2	-21%	.	-10%	-11%	?	7%	-5.0%	0%
O=C1NC2(CCCC2)N=C1c1ccc(F)cc1	15%	-3%	0%	-1%	-4%	0%	6.9%	0%
CCOC(=O)c1c(N)n(C2CC(C)(C)NC(C)(C)C2)c2nc3ccccc3nc12	.	-2%	-3%	-7%	?	?	-10%	-12%
Cc1ccc(C2CN(C)C3(C(=O)Nc4ccccc43)C23COc2ccccc2C3=O)cc1 (stereo not drawn)	58%[activator]	-7%	-75%	-1%	?	-24%	-0.9%	-26%
COc1ccc(N(CC2CO2)S(=O)(=O)c2ccc(C)cc2)cc1 (stereo not drawn)	22%	-25%	-2%	.	-9%[46.1 µM]	?	.	-4%
Cn1ccnc1SCC(=O)Nc1ccc(Cl)cn1	3%	8%	.	.	?	16%[46.1 µM]	.	0%
CC(=O)c1cccc(NC(=O)CN(c2ccccc2F)S(C)(=O)=O)c1	1%	8%	7%	1%	-3%	11%	4.7%	6%
COc1ccc(OC)c(C2=NS(=O)(=O)N(C)C(C(=O)N3CCC4(CC3)OCCO4)=C2)c1	-4%	7%	-8%	.	.	.	.	-3%
O=C(Nc1nc2ccccc2n1CCOc1ccc(Cl)cc1)c1ccco1	0%	-22%	-62%	-11%	.	.	-6.2%	-5%
CC1CCN(c2nc3ccccc3nc2C(C#N)C(=O)OC2CCCCC2)CC1 (stereo not drawn)	7%	-14%	-49%	?	3%&3%	2%	9.7%	-2%
Cc1cccc(C(=O)Oc2csc(=S)n2C(=O)c2cccc(C)c2)c1	9%	-16%	11%	5%	-3%	-5%	-14%	-12%
Cc1cccc(NC(=S)Nn2cnnc2)c1C	1%	-2%	5%	.	-4%[46.1 µM]	.	.	-1%
O=C(CNCc1ccccc1)Nc1ccc(F)cc1	26%	9%	-1%	.	-1%	17%	.	1%
Cc1ccc2oc(=O)n(Cc3ccccc3Cl)c2c1	-16%	.	.	6%	9%[46.1 µM]	29%[46.1 µM]	-5.7%	.
CCOC(=O)c1[nH]c2cc(OC)c(OC)cc2c1NC(=O)CN(C)C1CCCCC1	0%	-23%	7%	-4%	?	6%	-11%	-2%

Complete entries, looked up by structure. Order of values: StopGo reporter | RE007 growth inh | NS1 function inh | Cruzain noTriton | MARV entry inh | LASV entry inh | Cruzain Triton | SARS PLP yeast
Profile of COc1cc(C(=O)Nc2nc(N)n(-c3ccccc3)n2)cc(OC)c1OC → -1% | 12% | -1% | -5% | 0% | 14% | 6.0% | -3%
Profile of Cn1ccnc1SCC(=O)Nc1ccc(Cl)cn1 → 3% | 8% | . | . | ? | 16%[46.1 µM] | . | 0%

Next part.
SMILES	StopGo reporter	RE007 growth inh	NS1 function inh	Cruzain noTriton	MARV entry inh	LASV entry inh	Cruzain Triton	SARS PLP yeast
COc1cccc(CNC(=O)C2CCCN(S(=O)(=O)c3cn(C)cn3)C2)c1 (stereo not drawn)	2%	.	.	-6%	.	17%[46.1 µM]	0.6%	.
COc1ccccc1-n1c(=S)[nH]c2c(sc(=S)n2-c2ccccc2C)c1=O	-21%	14%	.	.	?	-29%[46.1 µM]	.	3%
CCCc1nnc(NC(=O)CCC(=O)N2CCCCC2)s1	-1%	2%	0%	.	.	.	.	-8%
O=C(Nc1ccc(Br)cc1F)c1cc(S(=O)(=O)NC2CCCC2)ccc1F	30%[activator]	.	.	0%	.	24%[46.1 µM]	0.0%	.
Cc1oc2c(C)c3oc(=O)c(CCC(=O)NCCCN4CCOCC4)c(C)c3cc2c1C	-3%	-15%	-4%	.	.	.	.	0%
CC(C)CC(c1nnnn1CC1CCCO1)N1CCN(c2nc3ccccc3s2)CC1 (stereo not drawn)	-19%	-2%	-6%	?	?	6%	-3.1%	2%
CCCCCc1ccc(-c2cn(CN3C(=O)c4ccccc4C3=O)nn2)cc1	-21%	1%	7%	.	.	.	.	-3%
CCC(C)[C@H](NC(=O)N1CC(=O)Nc2ccccc21)C(=O)Nc1nccs1 (stereo partly drawn)	-9%	4%	29%	.	-16%[46.1 µM]	18%[46.1 µM]	.	9%
COc1cccc([C@H](O)Cn2cc(-c3ccc(CON=C(C)C)cc3)nn2)c1	.	.	-15%	4%	?	?	-2.0%	-11%
Cc1ccc(C(=O)Nc2ccc3c(c2)CCC3)cc1S(=O)(=O)N1CCOCC1	23%	15%	.	.	?	13%[46.1 µM]	.	5%
C/C(Cn1cnc([N+](=O)[O-])n1)=N\NC(=O)c1cccc(F)c1	39%[activator]	-10%	0%	6%	-10%	26%	0.4%	-3%
CCn1c(=O)n(CC)c2cc(N)ccc21	12%	1%	4%	.	.	.	.	0%
CCOc1cc(N2CCOCC2)c(OCC)cc1NC(=O)c1ccc(C)s1	-13%	-8%	12%	.	.	.	.	-1%
COc1cc(-c2ccc(Nc3ccccc3C(=O)O)c(OC)c2)ccc1Nc1ccccc1C(=O)O	-23%	-20%	3%	.	?	?	.	4%
O=C(NCCc1ccccn1)c1ccc(COc2ccccc2)o1	15%	5%	-10%	?	12%	-4%	?	5%
Cc1nn2c(=O)cc(CSCC(=O)Nc3ccccc3Cl)nc2s1	-10%	11%	-2%	.	.	.	.	2%
Cc1nc(SCc2ccc(Cl)c(Cl)c2)ncc1C(=O)O	-4%	-12%	.	.	6%[46.1 µM]	19%	.	-5%
Cn1nc(C(=O)Nc2cc(Cl)ccc2N2CCCC2)c2ccccc2c1=O	-9%	-1%	.	.	?	?	.	0%
Cc1cc(C(=O)N2CCCC(N3CCN(c4cccc(C(F)(F)F)c4)CC3)C2)no1 (stereo not drawn)	-16%	-2%	-9%	.	-7%	-19%	.	1%
Cc1nnc(SCC(=O)Nc2cccnc2Cl)s1	6%	2%	.	.	-1%[46.1 µM]	21%	.	-1%
COC(=O)C1C(c2ccccc2)C(C(=O)O)C1c1ccccc1 (stereo not drawn)	-1%	10%	-2%	.	0%[46.1 µM]	21%[46.1 µM]	.	1%
COc1ccc(C=O)c(OC)c1	-14%	38%	-31%	.	-6%[46.1 µM]	18%[46.1 µM]	.	-7%
COc1ccc(CN2CCCC(C(=O)c3ccc4c(c3)OCO4)C2)c(F)c1 (stereo not drawn)	-2%	0%	5%	.	.	.	.	4%
COC(=O)c1ccc(C2Nc3cccc4cccc(c34)N2)cc1	-27%	-19%	.	.	1%[46.1 µM]	-4%	.	-3%
C=CC(=O)Nc1ccc(Br)cc1	-17%	-17%	-124%	-14%	-15%	?	-1.6%	-49%

Rewritten with values under each structure: part of the list above.
Sequence of screens – StopGo reporter	RE007 growth inh	NS1 function inh	Cruzain noTriton	MARV entry inh	LASV entry inh	Cruzain Triton	SARS PLP yeast
> COc1ccc(CN2CCCC(C(=O)c3ccc4c(c3)OCO4)C2)c(F)c1 (stereo not drawn)
    -2%	0%	5%	.	.	.	.	4%
> COc1cc(-c2ccc(Nc3ccccc3C(=O)O)c(OC)c2)ccc1Nc1ccccc1C(=O)O
    -23%	-20%	3%	.	?	?	.	4%

Going on with the list.
SMILES	StopGo reporter	RE007 growth inh	NS1 function inh	Cruzain noTriton	MARV entry inh	LASV entry inh	Cruzain Triton	SARS PLP yeast
Cc1nn(C)c(C)c1S(=O)(=O)N1CCC(C(=O)NCC2COc3ccccc3O2)CC1 (stereo not drawn)	-17%	6%	-5%	21%	6%	.	-4.9%	-8%
CC(=O)c1c(C)[nH]c(C(=O)Nc2cccnc2)c1C	16%	-14%	6%	-10%	-7%	-2%	0.5%	-3%
COCCn1c(SCC(=O)NCc2ccc3c(c2)OCO3)nnc1-c1c[nH]c2ccccc12	0%	-4%	0%	9%	-7%	.	1.5%	-3%
COC(=O)c1ccc(C23CC4(C2)[C@H](CN(Cc2ccc(-c5ccccc5)cc2)[C@@H]4c2ccccc2)C3c2ccc(C(F)(F)F)cc2)cc1 (stereo partly drawn)	6%	-9%	0%	?	.	.	1.0%	3%
CCc1ccc(CNC(=O)c2cnc3sc(N4CCCC4)nn3c2=O)cc1	-13%	.	.	-3%	.	?	-0.4%	.
Cc1ccc2ncnc(NCCCCCC(=O)O)c2c1	-1%	4%	6%	.	-2%[46.1 µM]	-1%	.	-3%
Cc1cccc(NC(=S)N(C)C)c1C	-3%	-3%	-1%	.	15%[46.1 µM]	13%	.	1%
Cc1c(OC(C)C(=O)NC2CC(C)(C)NC(C)(C)C2)ccc2c3c(c(=O)oc12)CCC3 (stereo not drawn)	9%	0%	3%	.	?	-7%[46.1 µM]	.	-1%
COCCn1nnnc1C(c1ccc(OC)cc1)N1CCN(c2ccccc2F)CC1 (stereo not drawn)	-8%	0%	-21%	?	?	-2%	-2.5%	11%
